Source: PubChem BioAssay (National Center for Advancing Translational Sciences (NCATS))
RE007 growth inh: less growth of the S. pombe RE007 Vpr strain; S. pombe RE007 Vpr strain, BacTiter-Glo ATP luminescence, 24 h; control for the full effect not named in the record; Potency, µM (series often up to 92.2 µM), inactives show top-dose activity change, negative = less growth; actives 0.21% (n = 360,000); AID 651644; active = well fitted falling curve with a large enough effect; inconclusive = small, poorly fitted or top-dose-only effect; inactive = no such curve, though single readings can be large or run the other way;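 note: % is set by controls: 0 for no effect and ±100 for the full control effect; nearly all actives have a fitted effect of over 50% in size; the assay follows cell death caused by Vpr and the record does not say whether a fall means rescue or toxicity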
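Fission yeast strain RE007, carrying one chromosomally integrated HIV-1 vpr copy, was seeded at OD 0.01 in PMG+AL medium with 23 nL pinned compound. After 24 h at 30 °C and 99% humidity, viability was read by BacTiter-Glo luminescence.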
SARS PLpro yeast: inhibitors of SARS-CoV papain-like protease in yeast. S. cerevisiae expressing SARS-CoV PLpro, growth rescue; control for the full effect not named in the record. Potency, µM (series often up to 32.9 µM), for the others: top-dose activity, positive = growth rescue. actives 0.19% (n = 330,000). AID 485353; note: 0% is about no effect; nearly all actives have a fitted effect of over 55% in size; growth read by luminescence after 48 h
Cruzain Triton: inhibitors of Trypanosoma cruzi cruzain with detergent; actives 0.43% (n = 200,000); purified cruzain, Z-FR-AMC fluorescence, 0.01% Triton; Potency, µM, for inactives: max response, negative = inhibition, hits mostly inhibitors; active = well fitted curve in the direction sought with a large enough effect; inconclusive = small, poorly fitted or top-dose-only effect, or another doubt; inactive = no such curve, though single readings can be large; an effect the other way counts as inactive or inconclusive;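 note: plate controls were neutral wells for no effect and buffer without enzyme for full effect; nearly all actives have a fitted effect of over 40% in size; top concentration of the series not given in the record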
Target sequence (P25779 123-467 limits assumed): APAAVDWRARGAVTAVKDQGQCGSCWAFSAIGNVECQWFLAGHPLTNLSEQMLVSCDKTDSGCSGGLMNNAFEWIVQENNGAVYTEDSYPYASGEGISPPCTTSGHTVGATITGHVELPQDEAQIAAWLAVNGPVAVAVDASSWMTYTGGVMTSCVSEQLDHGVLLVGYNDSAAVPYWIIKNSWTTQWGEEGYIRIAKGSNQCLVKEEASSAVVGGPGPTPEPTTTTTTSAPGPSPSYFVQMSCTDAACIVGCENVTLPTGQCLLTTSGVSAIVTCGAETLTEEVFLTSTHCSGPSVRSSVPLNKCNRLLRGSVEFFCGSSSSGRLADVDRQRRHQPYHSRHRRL
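In this qHTS format, compounds are incubated with 1.5 nM cruzain for 15 min at room temperature before 2 uM Z-FR-AMC is added. Release of AMC is followed at 360/450 nm, and progress is taken as the 60 s fluorescence difference.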
StopGo reporter: lowers the luciferase signal of an FMDV 2A StopGo reporter. human cells with a luciferase reporter of 2A StopGo recoding; control for the full effect not named in the record. actives 1.2% (n = 410,000). Potency, µM (doses to about 57.9 µM), for the others: at the top dose signal change, negative = less light; active = well fitted falling curve with a large enough effect; inconclusive = small, poorly fitted or top-dose-only effect; inactive = no such curve, though single readings can be large or run the other way; tested in HEK293T cells; note: % is set by controls: 0 for no effect and ±100 for the full control effect; nearly all actives have a fitted effect of over 45% in size; luciferase light after 4 h
MARV entry inh: blocks Marburg virus binding to or entry into cells. Potency, µM (titrated, usually from 37.8 µM), inactives show top-dose activity change, negative = inhibition, most hits filed as inhibitors. Marburg virus pseudotyped entry inhibition, cell reporter; control for the full effect not named in the record; about a third of the inactives were read at about 46 µM. actives 1.8% (n = 300,000); active = well fitted inhibition curve with a large enough effect; inconclusive = small, poorly fitted or top-dose-only effect, or effect the other way; inactive = flat fitted curve, though single readings scatter; tested in HEK293 cells; about a fifth of its hits are not listed in these tables; note: % is set by controls: 0 for no effect and ±100 for the full control effect; luciferase read-out
Cruzain inh noDet: cruzain (T. cruzi) inhibition without detergent | purified cruzain, Z-FR-AMC fluorescence, no detergent | actives 2.3% (n = 200,000) | Potency, µM, for inactives: max response, negative = inhibition, hits mostly inhibitors | AID 1476 | P25779; active = well fitted curve in the direction sought with a large enough effect; inconclusive = small, poorly fitted or top-dose-only effect, or another doubt; inactive = no such curve, though single readings can be large; an effect the other way counts as inactive or inconclusive;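 note: plate controls were enzyme without inhibitor for no effect and buffer without enzyme for full effect; nearly all actives have a fitted effect of over 40% in size; top concentration of the series not given in the record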
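Purified cruzain at 1.5 nM, pre-incubated 15 min with compound at room temperature in 100 mM sodium acetate pH 5.5, 5 mM DTT, 0.00005% Triton X-100. Reaction started with 2 uM Z-FR-AMC; AMC fluorescence increase over 60 s gives rate.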
Lassa entry inh: Lassa virus entry inhibition; Potency, µM (series often up to 37.9 µM), without a hit: at the top dose activity change, negative = inhibition, hits mostly inhibitors; actives 1.2% (n = 300,000); AID 540256; Lassa virus pseudotype entry inhibition, cell reporter; control for the full effect not named in the record; active means well fitted inhibition curve with a large enough effect; inconclusive means small, poorly fitted or top-dose-only effect, or effect the other way; inactive means flat fitted curve, though single readings scatter; tested in HEK293 cells; note: % is set by controls: 0 for no effect and ±100 for the full control effect; nearly all actives have a fitted effect of over 50% in size; luciferase read-out
NS1 function inh: inhibitors of influenza NS1 protein function; S. cerevisiae slowed by influenza A NS1, growth recovery by OD600; Potency, µM (series often up to 46.1 µM), for inactives: top-dose activity, positive = more growth; actives 0.4% (n = 270,000); AID 2326; note: actives are rising curves; nearly all actives have a fitted effect of over 50% in size
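Compounds were scored for reversing the slow growth caused by influenza A NS1 in S. cerevisiae, measured by optical density at 600 nm. Assay medium contained 2% galactose at pH 6.0; NS1-free yeast of the same strain were the positive control.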
* = called active by the depositor; ? = inconclusive; / = not tested or not shown; & = joins results of further samples; [ ] = another dose, or the depositor's remark. Unless noted, calls come from the whole dose curve; as a rule, active means well fitted rising curve with a large enough effect; inconclusive means small, poorly fitted or top-dose-only effect; inactive means no such curve, though single readings can be large or run the other way. Potency is the fitted concentration of half-maximal effect. Random draw from the library. About 4.8% of those tested had a hit in this group.

The line under a structure holds: RE007 growth inh	SARS PLpro yeast	Cruzain Triton	StopGo reporter	MARV entry inh	Cruzain inh noDet	Lassa entry inh	NS1 function inh
CN(C)C(=O)c1ccc(=O)n(Cc2ccc(Cl)cc2Cl)c1
    4%	0%	/	-3%	5%	/	9%	0%
Nc1c(C(=O)NCc2ccco2)nnn1Cc1ccccc1
    -17%	/	5.1%	20%	11%	14%	13%	-11%
O=S(=O)(NCCCN1CCOCC1)c1ccc(Cl)cc1
    -2%	0%	/	-4%	3%[46.1 µM]	/	9%[46.1 µM]	1%
CCOC(=O)C1=C(CS(=O)(=O)c2ccccc2)NC(=O)NC1c1ccccc1OCC (stereo not given)
    -2%	8%	-1.7%	-13%	2%	3%	/	2%
CCOC(=O)N1CCC2(CC1)C(C#N)=C(N)OC1=C2C(=O)CC(C)(C)C1
    4%	6%	12%	-13%	15%	0%	7%	-1%
CCN(CC)c1ccc(NC(=O)COc2ccc(-n3cnnn3)cc2)cc1
    10%	-2%	/	0%	-20%[46.1 µM]	/	-3%[46.1 µM]	/
O=C(O)C1(c2ccccc2)CCN(S(=O)(=O)c2ccc(Cl)s2)CC1
    2%	0%	/	?	/	/	/	7%
Cc1ccnc(NC(=O)Nc2cccc(F)c2)c1
    9%[3.69 µM]	-2%	-3.1%	-34%	?	0%	6.5µM*	-10%
CCC(C)(C(=O)NC1CCCC1)N(C(C)=O)c1ccc(C)cc1 (stereo not given)
    7%	8%	5.7%	8%	16%	-3%	1%	-2%
O=C(Nc1nc2ccccc2c2nc3ccccc3n12)c1ccc(F)cc1
    /	7%	-2.5%	/	4%	2%	2%	-1%
O=C(CN1CCCC(O)C1)N1c2ccccc2Sc2ccc(C(F)(F)F)cc21 (stereo not given)
    2%	3%	3.1%	?	-2%	-2%	-21%	1%
CCOC(=O)C1=C(c2ccccc2)N=c2s/c(=C\c3ccc(O)cc3)c(=O)n2C1c1cccs1 (stereo not given)
    -6%	-34%	0.7%	25µM*	?	13µM*	16µM*	7.1µM*
COC1=C(N)C(=O)c2nc(C)ccc2C1=O
    4%	/	/	10µM*	?	/	-21%	/
Cc1ccc(CNC(=O)C(OC(=O)c2cccs2)C(C)C)cc1 (stereo not given)
    -13%	0%	/	-29%	-12%[46.1 µM]	/	-27%	8%
Cc1ccc(NC(=O)CN2CCN(Cc3ccccc3)CC2)cc1Cl
    -12%	/	/	-1%	?	/	19%	/

Single entries from above.
O=C(Nc1nc2ccccc2c2nc3ccccc3n12)c1ccc(F)cc1 | Cruzain Triton: -2.5%
COC1=C(N)C(=O)c2nc(C)ccc2C1=O | RE007 growth inh: 4%

(further entries)
The line under a structure holds: RE007 growth inh	SARS PLpro yeast	Cruzain Triton	StopGo reporter	MARV entry inh	Cruzain inh noDet	Lassa entry inh	NS1 function inh
Brc1ccc(CSc2nccn2-c2ccccc2)cc1
    -18%	?	-4.2%	0%	?	-7%	-23%	-52%
COc1ccc(NC(=O)CSc2nnc(CNC(=O)c3ccco3)n2-c2ccccc2OC)cc1
    -19%	5%	0.9%	8%	25%[46.1 µM]	-1%	1%	-7%
CCc1ccc(NC(=O)N(CCOC)C2CCN(C(C)=O)CC2)cc1
    8%	-8%	4.2%	44%[activator]	14%	18%	14%	4%
O=[N+]([O-])c1ccc2[nH]ncc2c1
    5%	-2%	/	-15%	5%[46.1 µM]	/	/	/
Cc1cc(C)c2nc(N(CCN(C)C)C(=O)c3ccc4ccccc4c3)sc2c1
    -13%	-8%	/	-16%	/	/	/	-19%
COc1ccc(C(C(=O)NC2CCCC2)N(C(=O)c2snc(C(N)=O)c2N)c2ccccc2OC)cc1OC (stereo not given)
    -5%	1%	/	2%	?	/	?	-6%
CCOC(=O)N1CCN(C(=O)c2cc(COc3ccc(OC)cc3Cl)on2)CC1
    -24%	-4%	/	4%	?	/	?	-37%
Cc1nc(C)c(-c2ccc(SCC(=O)Nc3ccc(Cl)c(Cl)c3)nn2)s1
    /	/	-5.7%	?	/	25%	?	/
CCCCCSc1nc2c(c(=O)[nH]c(=O)n2C)n1C(C)C
    -9%	-5%	-2.2%	-30%	-2%	3%	-6%	-14%
CC1(C)Cc2c(ccc3ccccc23)C2=C(C(=O)N3CCCC3)C(=O)C(=O)N21
    14%	9%	/	-8%	?	/	?	/
CCOC(=O)Cn1nc(C)c(NC(=O)COc2ccccc2)c1C
    -2%	0%	0.9%	10%&-21%	8%&8%[46.1 µM]	3%	2%	-1%
COc1ccc(F)cc1S(=O)(=O)NCC1CCCO1 (stereo not given)
    1%	-1%	/	72%[activator]	?	/	4%	1%
CN(CCOc1ccccc1)C(=O)c1ccc2c(c1)OCO2
    33%	1%	/	47%[activator]	25%	/	-1%	/
O=C(c1ccccc1)c1cccn1CC(=O)N1CCN(c2ccccc2)CC1
    23%	2%	5.2%	-12%	-3%	9%	-4%	3%
C/C(N)=C(/C#N)C(=O)CSc1nc(C2CCCCC2)n(-c2ccccc2)n1
    26%&-5%	-18%	-4.6%	-9%&-13%	-25%[46.1 µM]	-6%	-1%[46.1 µM]	-49%
Cn1c(COc2nnc(-c3ccc(Cl)cc3)c3ccccc23)nc2ccccc21
    3%	20%	-0.1%	/	6%	-1%	?	17%
CCN(CC)CCCNC(=S)N1CCN(c2nc3ccccc3n2CC)CC1
    -11%	-3%	/	-7%	?	/	-3%[46.1 µM]	20%
COCCn1c(SCC(=O)Nc2cccc(C)c2C)nc2c(oc3ccccc32)c1=O
    /	/	0.2%	-15%	-5%[46.1 µM]	14%	/	/
CCC(C)(C)n1nnnc1C(c1ccc(C)cc1)N1CCSCC1 (stereo not given)
    36%	-5%	-3.1%	2%	-10%	-2%	-19%	-7%
Cc1ccc(CNC(=O)C2CC(=O)OC23CCCC3)c(C)c1 (stereo not given)
    12%	-17%	0.0%	-6%	-1%	-1%	?	8%
COc1cccc(N2CC(C(=O)OC(C)C(=O)c3ccccc3)CC2=O)c1 (stereo not given)
    -5%	-5%	2.7%	-15%	17%	13%	-8%	-17%
O=C(NCC1CCCO1)c1c[nH]c2ccc(S(=O)(=O)Nc3cccc(C(F)(F)F)c3)cc2c1=O (stereo not given)
    /	/	-12%	3%	/	22%	-2%[46.1 µM]	/
CCN1CCN(C(=O)c2cc(S(=O)(=O)N3CCCCC3)ccc2Cl)CC1
    -12%	-2%	/	-15%	-6%	/	1%	5%
CC(C)CNc1oc(-c2ccccc2Cl)nc1C#N
    -16%	-2%	/	18%	3%[46.1 µM]	/	23%[46.1 µM]	-45%
COc1cccc(/C=C/c2ccncc2)c1OC
    3%	-1%	2.6%	5%	?	-11%	1%	-112%
COc1ccc(-n2nc3c(N4CCC(C(=O)NCCc5ccco5)CC4)nnc(C)c3c2C)cc1
    -14%	1%	/	-8%	/	/	/	11%
CC(C)NC(=O)CN1C(=O)c2ccccc2S1(=O)=O
    13%	1%	/	49%[activator]	?	/	12%	2%
Cc1cccc(C(=O)OC(C)C(=O)NC2CCCc3ccccc32)c1O (stereo not given)
    -1%	10%	/	19%	1%[46.1 µM]	/	-26%	/
COc1ccc(OC)c(S(=O)(=O)N2CCCCC2C(=O)N2CCN(c3ccccn3)CC2)c1 (stereo not given)
    -6%	19%	-1.7%	-15%	?	-1%	?	-5%
Cn1c(=O)cc(OCC(=O)N2CCC3(CC2)OCCO3)c2ccccc21
    -13%	2%	2.2%	-11%	-11%	11%	-1%	1%

Some of the entries above, set out differently:
SMILES: CCOC(=O)N1CCC2(CC1)C(C#N)=C(N)OC1=C2C(=O)CC(C)(C)C1
  RE007 growth inh: 4%	SARS PLpro yeast: 6%	Cruzain Triton: 12%	StopGo reporter: -13%	MARV entry inh: 15%	Cruzain inh noDet: 0%	Lassa entry inh: 7%	NS1 function inh: -1%
SMILES: CCN(CC)c1ccc(NC(=O)COc2ccc(-n3cnnn3)cc2)cc1
  RE007 growth inh: 10%	SARS PLpro yeast: -2%	Cruzain Triton: /	StopGo reporter: 0%	MARV entry inh: -20%[46.1 µM]	Cruzain inh noDet: /	Lassa entry inh: -3%[46.1 µM]	NS1 function inh: /

More records follow.
The line under a structure holds: RE007 growth inh	SARS PLpro yeast	Cruzain Triton	StopGo reporter	MARV entry inh	Cruzain inh noDet	Lassa entry inh	NS1 function inh
CCC(=O)N/N=C(\C)CC(=O)Nc1cccc([N+](=O)[O-])c1
    1%	-7%	-0.8%	-6%	0%	-5%	21%	12%
CCn1cc(CN2CCC(n3nccc3NC(=O)c3ccc(OC)cc3)CC2)cn1
    6%	17%	/	-7%	/	/	/	0%
C/C(=N\NC(=O)COc1ccccc1)c1ccc(O)cc1
    -1%	0%	/	25%	9%[46.1 µM]	/	/	0%
CCOC(=O)C(=O)c1c(-c2ccccc2)nc2ccccn12
    60%	-2%	/	-1%	-23%[46.1 µM]	/	?	0%
C1CCc2nnc(C3CC3)n2CC1
    2%	-1%	/	-19%	4%[46.1 µM]	/	-1%	-2%
CCCCc1c(O)nc2sccn2c1=O
    -18%	0%	-3.1%	-29%	?	-13%	3%	-5%
CCCCOc1ccccc1C1CC(=O)Nc2cc(OC)c(OC)cc21 (stereo not given)
    /	/	-10%	-7%	-30%[46.1 µM]	3%	-14%[46.1 µM]	/
COCc1ccc(C(=O)N(C)CC2CCCN(CCc3ccccc3F)C2)o1 (stereo not given)
    ?	9%	/	-15%	-7%[46.1 µM]	/	6%[46.1 µM]	0%
COc1ccc(/C=C/c2nc(C#N)c(NCc3ccc(F)cc3)o2)cc1OC
    /	/	-5.5%	-8%	?	4%	6%[46.1 µM]	/
